# Assay outcomes deposited in PubChem BioAssay by National Center for Advancing Translational Sciences (NCATS).
# ClpP mod – qHTS Assay for Activators of ClpP | ATP-dependent Clp protease proteolytic subunit (Bacillus subtilis (strain 168)), P80244 | purified B. subtilis ClpP, FRET peptide cleavage, 20 min | Potency, µM (top dose mostly 57.5 µM), inactives show top-dose activity change, negative = active | 340,000 compounds, 1.9% hits | AID 651965, 2013; active = well fitted falling curve with a large enough effect; inconclusive = small, poorly fitted or top-dose-only effect; inactive = no such curve, though single readings can be large or run the other way; further: potency means the concentration at half of the fitted maximal effect; the source files actives as falling curves though it sought activators and does not explain the sign; nearly all actives have a fitted effect of over 65% in size; many hits overshoot -100%
# Target sequence (P80244 whole entry, looked up): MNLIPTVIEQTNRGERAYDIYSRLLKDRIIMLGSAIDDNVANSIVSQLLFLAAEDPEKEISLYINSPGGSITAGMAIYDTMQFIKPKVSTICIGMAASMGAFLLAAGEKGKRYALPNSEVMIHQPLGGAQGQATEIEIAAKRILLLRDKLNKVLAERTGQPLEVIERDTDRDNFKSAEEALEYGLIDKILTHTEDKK
#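 FRET quenching reversal measured ClpP activation: 10 microg/mL B. subtilis ClpP at pH 8 with the FRET-FV decapeptide, read at 430 nm after 320 nm excitation. The 20-min minus 0-min signal was scaled between DMSO/no-enzyme wells and ADEP (5.8 microM final).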
# Sfp PPTase inh – inhibitors of Bacillus subtilis Sfp phosphopantetheinyl transferase; 310,000 compounds, 3.5% hits; Potency, µM, for inactives: max response, negative = inhibition, actives largely listed as inhibitors; AID 1490; Biochemical Sfp PPTase activity, qHTS; Q9F4F7; active means well fitted inhibition curve with a large enough effect; inconclusive means small, poorly fitted or top-dose-only effect, or another doubt; inactive means no such curve, though single readings can be large or run the other way;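 further: the enzyme is Sfp with the accession as filed and its product quenches rhodamine fluorescence; potency means the concentration at half of the fitted maximal effect; 0% = enzyme reaction without inhibitor and -100% = no enzyme wells; top concentration of the series not given in the record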
#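 Buffer: 50 mM Hepes-Na pH 7.6, 10 mM MgCl2, 0.01% Nonidet P-40, 0.01% BSA. Enzyme 15 nM, pre-exposed to compound 15 min; substrates then added and fluorescence change tracked over 30 min.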
# TRPML1 inh – inhibitors of human TRPML1 channel; Q9GZU1; activity change, negative = inhibition, % (concentration not given with the values); TRPML1-inducible cells, Ca2+ dye fluorescence, FDSS; hits give low values; inhibition of EC80 agonist-evoked calcium signal; 390,000 compounds, 0.02% hits; in the data active means activity change below about -50%; inconclusive means about -30% to -50%; inactive means above about -30%;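 further: stimulus is agonist 54-4 at its EC80 concentration; on the % scale 0 is the no-effect control and ±100 the full control effect; the text of the record puts the active cut at -80%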
#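 Tet-induced TRPML1-DL cells loaded with Ca8 no-wash calcium dye were read kinetically on FDSS. Compound addition was followed by EC80 agonist 54-4 (4 uM final); inhibition was read over 110 s.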
# PINK1 modulator – PINK1 expression modulation; PINK1 immunofluorescence, high-content cytometry, 24 h; 410,000 compounds, 0.2% hits; AID 624263; Potency, µM (titrated, usually from 76.6 µM), for the others: at the top dose activation (PINK1 increase), actives largely listed as activators; active = well fitted activation curve with a large enough effect; inconclusive = small, poorly fitted or top-dose-only effect; inactive = flat fitted curve, though single readings scatter; cell line not stated here;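 further: potency means the concentration at half of the fitted maximal effect; % of control where 0% means no effect; nearly all actives have a fitted effect of over 65% in size; a mitochondrial uncoupler was the plate control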
#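 PINK1 protein, normally rapidly degraded, was detected by immunofluorescence after 24 hour compound treatment of a stable cell line. Titration data (5 concentrations) came from laser-scanning cytometry, with CCCP-treated wells as controls.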
# Menin MLL FP FL – menin-MLL binding inhibition, fluorescein peptide. Fluorescence polarization, fluorescein-MLL peptide displacement from menin. FP activity change, % at 61.4 µM. 290,000 tested, under 10 active; inconclusive = falling polarisation curve, or a change in total fluorescence; inactive = total fluorescence flat and polarisation flat or rising; no compound was filed as active; the % refers to the polarisation; negative = inhibition;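 further: % of control where 0% means no effect; inhibitors lower the polarisation; unlabelled MLL peptide was the positive control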
# TRPML1 ag – agonists of human TRPML1 channel. Q9GZU1. TRPML1-expressing cells, Ca2+ dye fluorescence, FDSS; host cell line not named in the record; reference of the full effect not given here. activation, % (concentration not given with the values). 410,000 compounds, 0.12% hits; in the data active = activation above about 50%; inconclusive = about 30% to 50%; inactive = below about 30%; further: 0% is about no effect; the text of the record puts the active cut at 80%
#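 Cells: TRPML1-DL, 1X Tet inducer, ~16 h at 37 degrees C/5% CO2. Dye: ABD Ca8 no-wash + quencher, 45-90 min RT. Read: 10 s baseline, compound add, 110 s agonist phase; 54-4 EC80 (4uM final), 110 s antagonist phase.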
# TRPV1 potentiator – enhances activation of the human vanilloid receptor TRPV1; Q8NER1; TRPV1-expressing cells, Fluo-8 calcium influx, capsaicin EC20 potentiation; host cell line not named in the record; control for the full effect not named in the record; potentiation, % at 8.33 µM; 320,000 compounds, 0.02% hits; active means potentiation above 80%; inconclusive means 30% to 80%; inactive means below 30%; further: 0% is about no effect
# Target sequence (Q8NER1 whole entry, looked up): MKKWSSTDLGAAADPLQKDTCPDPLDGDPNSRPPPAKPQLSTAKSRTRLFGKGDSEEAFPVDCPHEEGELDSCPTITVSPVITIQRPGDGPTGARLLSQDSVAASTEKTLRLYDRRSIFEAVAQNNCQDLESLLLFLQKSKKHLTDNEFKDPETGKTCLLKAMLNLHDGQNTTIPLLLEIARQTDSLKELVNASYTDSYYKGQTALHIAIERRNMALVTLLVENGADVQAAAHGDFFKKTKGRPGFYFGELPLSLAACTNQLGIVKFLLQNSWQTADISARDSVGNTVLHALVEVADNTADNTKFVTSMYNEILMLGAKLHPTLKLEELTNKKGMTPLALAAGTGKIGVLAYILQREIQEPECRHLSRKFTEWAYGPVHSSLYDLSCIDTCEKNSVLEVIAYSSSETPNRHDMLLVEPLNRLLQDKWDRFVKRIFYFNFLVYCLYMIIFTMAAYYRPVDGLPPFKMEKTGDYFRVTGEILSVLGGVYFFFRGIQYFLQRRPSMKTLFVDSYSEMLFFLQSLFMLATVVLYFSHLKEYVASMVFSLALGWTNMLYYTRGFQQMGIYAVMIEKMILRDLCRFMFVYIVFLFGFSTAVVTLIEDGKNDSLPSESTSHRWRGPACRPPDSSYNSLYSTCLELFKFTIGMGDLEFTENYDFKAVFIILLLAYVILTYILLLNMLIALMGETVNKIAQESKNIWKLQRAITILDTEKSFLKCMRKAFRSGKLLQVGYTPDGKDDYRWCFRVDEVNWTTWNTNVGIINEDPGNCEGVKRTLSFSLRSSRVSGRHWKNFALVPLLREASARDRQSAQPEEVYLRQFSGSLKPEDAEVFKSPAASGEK
#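 TRPV1-expressing cells were cultured overnight at 35.5C and loaded with Fluo-8 calcium dye for 40 to 90 min at room temperature. After a 10 s baseline, compound was added and calcium influx was read kinetically for 3 min (ex 480/em 520 nm).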
# The depositor's hits bear a star; ? = inconclusive; . = no result given; [ ] = dose if it differs, or a comment. An unsorted share of the library; about 4.4% have a hit in one of these screens.
SMILES,ClpP mod,Sfp PPTase inh,TRPML1 inh,PINK1 modulator,Menin MLL FP FL,TRPML1 ag,TRPV1 potentiator
CCOC(=O)c1cccc(NC(=O)C2CCCN(S(=O)(=O)c3cnc[nH]3)C2)c1 (stereo not drawn),-3.2%,6%,-9,2.3%,-2.4,0.6,-7
CC(C)(C)OC(=O)N1CCC[C@H]1C(=O)N/N=C/c1ccc2nccnc2c1,-1.1%,7%,1,-0.4%,-1.1,-0.1,14
COc1ccc(NS(=O)(=O)c2ccc(C)c(C(=O)NCC(c3cccs3)N3CCOCC3)c2)cc1 (stereo not drawn),-2.6%,.,-11,4.8%,.,-0.3,25
COc1cccc(-c2cc(C(=O)O)[nH]n2)c1,-0.8%,15%,43,-0.1%,5.3,-0.5,-3
CC1CCCN(S(=O)(=O)c2ccc3c(c2)n(C)c(=O)c(=O)n3C)C1 (stereo not drawn),-3.2%,-5%,13,3.6%,-1.5,0.7,-5
O=C(NCC1CCCO1)c1cc2ccccc2o1 (stereo not drawn),-7.5%,18%,5,0.2%,.,-0.1,-2
CCOC(=O)C1=C(C)c2ccccc2OC1C(=O)OCC (stereo not drawn),0.2%,1%,31,0.8%,7.0[94.6 µM],0.7,.
CCOCCCN(Cc1ccco1)S(=O)(=O)c1cc2c(cc1Cl)NC(=O)CO2,-5.3%,.,-22,0.0%,.,1.2,.
CCOC(=O)c1cccc(NC2c3ccccc3C(=O)N2Cc2ccco2)c1 (stereo not drawn),-13%,6%,12,1.2%,1.5,1.4,-6
Cc1nn(-c2ccccc2)c(C)c1/C=N/NC(=O)c1cc(C(C)(C)C)[nH]n1,-1.9%,12%,21,-0.6%,0.1,1.8,-2
COc1ccc(OC)c(CNCc2c(C(=O)O)n(Cc3ccccc3)c3cc(OC)ccc23)c1,-1.2%,.,-5,0.7%,.,-0.2,.
COc1ccc(Cl)cc1C(=O)NNC(=O)CSc1nncn1C,.,.,7,0.2%,.,-0.2,.
CN1CCN(c2ccc(C(=O)c3cn(-c4ccc(F)c(Cl)c4)nn3)cc2)CC1,.,19%,-4,2.4%,1.0,-0.1,4
O=C(CN1CCN(S(=O)(=O)c2ccc3ccccc3c2)CC1)NC(=O)NC1CCCCC1,0.7%,16%,2,-0.4%,4.5,0.5,4
Cc1ccc(-n2ncc3c(=O)[nH]c(SCC(=O)N4CCCC4)nc32)cc1C,-7.5%,-4%,-7,0.1%,4.1,-0.4,-6
COc1ccccc1N1CCN(C(=O)c2ccc3[nH]c4c(c3c2)CC(C)CC4)CC1 (stereo not drawn),.,-2%,12,12%,2.6,0.5,3
COc1cc(/C=N/NC(=O)c2cc(-c3ccccc3C)nc3ccccc23)cc(OC)c1O,0.6%,.,-1,0.9%,.,4.7,.
CCOC(=O)Cn1c(-c2cccnc2)nc(-c2ccccc2)c1-c1ccccc1,.,8%,13,-0.9%,1.3,-0.1,-4
Cc1ccc(C2=NN(CCC(=O)NCc3ccc4c(c3)OCO4)C(=O)CC2)cc1,7.9µM*,14%,16,-1.8%,-1.7,-0.3,4
COC(=O)Cc1csc(Nc2ccc(Cl)cc2)n1,-1.1%,2%,27,7.7%,1.5,2.1,-4
COc1cccc(CNC(=O)C2CCN(S(=O)(=O)c3ccc4c(c3)CCCN4C(C)=O)CC2)c1,1.2%,.,-15,-1.1%,.,1.2,.
O=c1c(Cc2ccc(Cl)cc2)c(O)ccn1Cc1cccs1,.,27%,2,0.9%,-4.9,-0.1,3
COc1ccc2oc(=O)c(C(=O)NCCc3ccc(OC)c(OC)c3)cc2c1,.,9%,23,2.7%,-5.3,-0.6,-9
CCc1cccc(OCC(O)Cn2c(N3CCCCC3)nc3c2c(=O)[nH]c(=O)n3C)c1 (stereo not drawn),-0.8%,-1%,0,3.1%,5.0,1.2,-3
COC(=O)c1ccc(C)c(NC(=O)CSc2sc3c(O)cc(=O)[nH]c3c2C#N)c1,.,?,-4,2.1%,16,-0.5,12
COc1ccc(CCNC(=O)C(C)n2c(=O)cc(-c3ccccc3)c3c(C)nn(C)c32)cc1OC (stereo not drawn),-8.3%,.,24,1.3%,.,0.7,.
CCOc1cc(CNC(=O)c2ccc3c(c2)NC(=O)C2CCCCN32)cc(OCC)c1OCC (stereo not drawn),31%,.,-9,2.3%,.,1.3,.
CCC(=O)Nc1cc(-c2nc3ccccc3s2)c(Cl)cc1Cl,-19%,.,-11,1.4%,.,-0.8,.
COc1ccccc1NC(=O)Cn1ccn(-c2cc(C)cc(C)c2)c(=O)c1=O,2.0%,.,21,0.8%,.,-0.5,.
O=C(Nc1ccc(N2CCOCC2)c(C(=O)O)c1)c1ccc(Br)cc1,1.4%,.,-10,-1.2%,.,-0.6,.
C#CCOCCOCCOCCNc1nc(N2CCN(C(=O)[C@H]([C@@H](C)CC)n3cc([C@@H](N)CC(C)C)nn3)CC2)nc(N2CCN(C(=O)[C@H](Cc3cc4ccccc4[nH]3)n3cc([C@@H](N)CC(C)C)nn3)CC2)n1,.,-9%,.,.,0.1,.,4
CCN(CC)S(=O)(=O)c1ccc2c(c1)N(CC(=O)NCc1ccc(F)cc1)C(=O)CO2,0.0%,.,6,-0.2%,.,-0.1,.
CC(C)Oc1ccccc1OC1(C)CCN(Cc2ccc(OC(F)(F)F)cc2)C1 (stereo not drawn),0.6%,.,.,?,.,0.3,.
S=C(c1ccc(N2CCOCC2)cc1)N1CCCCC1,-1.7%,22%,-7,0.8%,1.1,1.1,-1
CCCC1CCC(C(=O)Nn2c(C)nc3ccccc3c2=O)CC1 (stereo not drawn),-6.9%,2%,12,4.5%,2.8,-0.2,-5
CCOc1ccc(NC(=O)COC(=O)CC2CCCCC2)cc1,-2.2%,.,-3,0.2%,.,6.1,-8
COc1cc2[nH]c(=S)n(CC3CCCO3)c(=O)c2cc1OC (stereo not drawn),-0.7%,-2%,21,7.0%[38.3 µM],-0.3,-0.2,4
CC(=O)c1cccc(NC(=S)N2CCC(Cc3ccccc3)CC2)c1,.,12%,1,-1.6%,-3.1,0.2,-9
CCOc1ccccc1NC(=O)c1c(NC(=O)Cc2ccccc2)sc2c1CCCC2,1.0%,.,-8,-0.2%,.,-1.0,.
Cc1ccccc1N(C)C(=O)c1coc(=O)c2ccccc12,-0.4%,16%,-1,-0.1%,1.4,-0.8,-8
COC(=O)c1ccc(Cl)c(NC(=O)CN(c2ccc(OC)cc2)S(=O)(=O)c2ccccc2)c1,-2.0%,.,-29,4.2%,.,2.1,.
O=C(CSc1nnc(-c2ccc(S(=O)(=O)N3CCOCC3)cc2)o1)c1ccccc1F,-2.8%,13%,-14,4.3%[38.3 µM],4.4,-0.1,-3
CCN1C(=O)[C@@H]2[C@@H](c3ccc(-c4ccc(C(C)=O)cc4)c(OC)c3)N3CCC[C@@]3(C(=O)OC)[C@@H]2C1=O,-14%,.,10,0.7%,.,-0.3,?
COc1ccc(-c2cc(=O)oc3cc(OCC(=O)NCc4ccccn4)ccc23)cc1,-20%,8%,-11,0.7%,-1.4,0.3,-7
CC(C)c1c(O)c2c(n(-c3ccccc3)c1=O)CCCC2,0.5%,15%,5,1.5%,.,-0.6,7
Cc1cc(C)cc(OCC(=O)Nc2ccc3c(c2)OCO3)c1,.,-7%,4,0.3%,3.7,0.7,-14
CN(C)c1ccc(S(=O)(=O)N2CCCCC2)cc1NC(=O)C1=COCCO1,-0.1%,-6%,-10,-0.1%,.,3.4,2
Cc1ccc(C(=O)N/C(=C/c2ccco2)C(=O)NCCc2c[nH]c3ccccc23)cc1C,?,21%,-8,-3.5%,1.2,-0.5,1
O=C(OCCc1cc2ccccc2c(=O)o1)c1ccc(F)cc1,-4.6%,.,-4,0.7%,.,5.4,-7
COC(=O)c1c(NC(=O)CCC(=O)O)sc(Cc2ccccc2)c1C,-10%,7%,.,-0.5%,4.9,.,6
NS(=O)(=O)c1ccc(CNC(=O)C(c2ccccc2)c2ccccc2)cc1,0.2%,6%,1,-1.7%,1.9,2.0,26
O=C(NC(=S)Nc1ccccc1[N+](=O)[O-])c1cncc(Br)c1,2.2%,7%,7,1.1%,-3.9,-0.8,-7
O=C(O)c1cc(S(=O)(=O)Nc2ccc3cn[nH]c3c2)ccc1O,-10%,.,-2,0.8%,.,-0.6,4
COc1ccccc1C(=O)NN1C(=O)/C(=C/c2cccn2C)SC1=S,.,6%,.,.,1.2,.,2
Cc1ccc(NS(=O)(=O)c2ccc3c(c2)NC(=O)C(C)C(=O)N3)cc1F (stereo not drawn),-1.8%,.,-17,1.6%,.,0.6,.
COc1ccccc1CNC(=O)Cn1nc(C)c([N+](=O)[O-])c1C,.,.,-6,1.8%,.,1.2,.
O=[N+]([O-])c1ccccc1/C=N/Nc1nc(N2CCCC2)nc(N2CCCC2)n1,122%,17%,7,8.7%,0.0,0.5,-9
COc1ccc(CN2CC(=O)N(c3cc(Cl)ccc3OC)C2=S)cc1OC,2.7%,-18%,8,2.8%,4.7,1.2,-29
O=C(CCN1CCN(Cc2ccccc2)CC1)NNC(=O)c1ccc(Cl)c(Cl)c1,0.1%,.,7,-0.5%,.,-0.6,.

# Part of the list above in another layout:
structure	ClpP mod	Sfp PPTase inh	TRPML1 inh	PINK1 modulator	Menin MLL FP FL	TRPML1 ag	TRPV1 potentiator
O=C(OCCc1cc2ccccc2c(=O)o1)c1ccc(F)cc1	-4.6%	.	-4	0.7%	.	5.4	-7
COC(=O)c1c(NC(=O)CCC(=O)O)sc(Cc2ccccc2)c1C	-10%	7%	.	-0.5%	4.9	.	6
NS(=O)(=O)c1ccc(CNC(=O)C(c2ccccc2)c2ccccc2)cc1	0.2%	6%	1	-1.7%	1.9	2.0	26
O=C(NC(=S)Nc1ccccc1[N+](=O)[O-])c1cncc(Br)c1	2.2%	7%	7	1.1%	-3.9	-0.8	-7
O=C(O)c1cc(S(=O)(=O)Nc2ccc3cn[nH]c3c2)ccc1O	-10%	.	-2	0.8%	.	-0.6	4
